PKD1 kinase inh: inhibitors of human PKD1 kinase; inhibition, %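 (about 10 µM by stock and volumes)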; PKD1 kinase fluorescence polarization assay; AID 797; 200,000 tested, 0.056% active;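 active = inhibition of 50% or more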;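 note: controls were vehicle for no effect and a reference inhibitor for full effect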
INS promoter inh: TRM-6 insulin promoter activity inhibition | 130,000 tested, 0.9% active | TRM-6 cells (human fetal islet line), insulin promoter-eGFP reporter, imaging; reporter expression induced with tamoxifen | inhibition, % at 2 µM | AID 1273;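 active = inhibition above the mean plus 3 SD, with well images judged a real hit on visual review, cut at about 60% in these data, passing the limit was not always enough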
GALR2 ag: GALR2 (human) receptor agonism. O43603. GALR2-expressing cells, agonist activation read-out. activation, %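 (tested at 5 µM)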. 140,000 tested, 0.48% active. AID 803;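 active = above mean plus 3 SD of all compounds, about 5% in these data, not always enough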;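 note: 0% = vehicle buffer wells and 100% = reference agonist at full effect; tested in CHO reporter cells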
Target sequence (O43603 whole entry, looked up): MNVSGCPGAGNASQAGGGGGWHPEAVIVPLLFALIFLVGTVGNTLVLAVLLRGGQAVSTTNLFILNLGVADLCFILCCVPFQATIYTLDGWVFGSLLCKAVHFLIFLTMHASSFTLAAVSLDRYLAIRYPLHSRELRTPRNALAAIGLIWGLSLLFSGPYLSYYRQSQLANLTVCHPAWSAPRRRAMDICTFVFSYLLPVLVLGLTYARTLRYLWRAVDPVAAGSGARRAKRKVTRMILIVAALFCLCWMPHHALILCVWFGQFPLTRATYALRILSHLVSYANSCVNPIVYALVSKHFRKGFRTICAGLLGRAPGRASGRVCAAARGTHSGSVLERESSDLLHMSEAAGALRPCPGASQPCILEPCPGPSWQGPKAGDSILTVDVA
RGS16-Gao HTS: regulators of human RGS16-Galphao interaction; bead-based flow cytometry RGS16-Galphao binding, fluorescence; actives lie on both sides; binding response (% of control), % at 10 µM; 220,000 tested, 0.38% active; AID 1441;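 active = below 25% or above 175%, edge rows of some plates excepted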;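 note: Galphao activated by GDP with aluminum fluoride before binding; 100% = wells without compound and 0% = beads without RGS; some results beyond the cut were filed as inactive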
Target sequence (O15492 whole entry, looked up): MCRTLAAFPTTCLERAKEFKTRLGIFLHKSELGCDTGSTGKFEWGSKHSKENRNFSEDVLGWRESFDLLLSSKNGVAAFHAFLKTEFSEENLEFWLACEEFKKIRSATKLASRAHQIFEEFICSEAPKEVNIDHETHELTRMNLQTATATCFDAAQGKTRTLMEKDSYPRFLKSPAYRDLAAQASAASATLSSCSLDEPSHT
Target sequence (P09471 whole entry, looked up): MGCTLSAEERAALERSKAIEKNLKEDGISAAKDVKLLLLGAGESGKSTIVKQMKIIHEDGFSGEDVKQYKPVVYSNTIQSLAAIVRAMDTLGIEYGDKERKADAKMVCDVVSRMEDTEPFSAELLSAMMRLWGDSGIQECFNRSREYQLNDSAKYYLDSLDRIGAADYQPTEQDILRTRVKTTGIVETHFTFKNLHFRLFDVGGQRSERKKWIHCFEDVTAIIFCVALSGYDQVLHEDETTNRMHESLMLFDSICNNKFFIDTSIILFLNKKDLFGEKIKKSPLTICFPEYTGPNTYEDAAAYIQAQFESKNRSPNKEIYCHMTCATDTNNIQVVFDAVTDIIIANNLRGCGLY
HSV augment: increases HSV replication in cells | maximum fold increase | AID 1956 | HSV replication augmentation in cells, fold increase | 220,000 tested, 0.005% active;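 active = peak rise of 1.5-fold or more in the series; tested in PC3 cells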;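 note: first round at 10 µM; read as green reporter fluorescence; hits show the peak of a series up to 25 µM; 1 = signal of infected wells without compound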
INS promoter inh cell count: second read-out of INS promoter inh, no call of its own (marks repeat the call); normalized cell count, %; measured here: cell count, toxicity; reference of the scale not given here;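 cells exposed to compound for 48 h; stained nuclei by imaging scaled within each plate; lower means fewer cells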
HSV augment primary fold: recorded beside HSV augment, whose call it bears; fold increase; compound at 10 µM; measured here: primary screen fold increase 10 uM; tested in PC3 cells;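 GFP signal in the first replicate; 1 = infected wells without compound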
An asterisk follows results filed as active.

Start of the data: the first 3 compounds (preview)
For Cc1cc(C(F)F)n2nc(C(=O)Nc3cc(C)on3)nc2n1 the results were PKD1 kinase inh 1.7, INS promoter inh 66.7, GALR2 ag 0.2, RGS16-Gao HTS 102.7, HSV augment inactive, INS promoter inh cell count 50.8 and HSV augment primary fold 1.07.
For Cc1cc(Nc2ccc(Cl)cc2)n(-c2cccc(Cl)c2)n1 the results were PKD1 kinase inh -6.6, INS promoter inh 38.5, GALR2 ag -2.5, RGS16-Gao HTS 98.5, HSV augment inactive, INS promoter inh cell count 127.0 and HSV augment primary fold 1.07.
CCc1ccc(-c2nc(CN3CCCC(C(=O)O)C3)c(C)o2)cc1 (stereo unspecified) was read as PKD1 kinase inh -7.8, GALR2 ag -1.4, RGS16-Gao HTS 90.0, HSV augment inactive and HSV augment primary fold 0.91.

The whole of this part, repeating the preview:
For Cc1cc(C(F)F)n2nc(C(=O)Nc3cc(C)on3)nc2n1 the results were PKD1 kinase inh 1.7, INS promoter inh 66.7, GALR2 ag 0.2, RGS16-Gao HTS 102.7, HSV augment inactive, INS promoter inh cell count 50.8 and HSV augment primary fold 1.07.
For Cc1cc(Nc2ccc(Cl)cc2)n(-c2cccc(Cl)c2)n1 the results were PKD1 kinase inh -6.6, INS promoter inh 38.5, GALR2 ag -2.5, RGS16-Gao HTS 98.5, HSV augment inactive, INS promoter inh cell count 127.0 and HSV augment primary fold 1.07.
CCc1ccc(-c2nc(CN3CCCC(C(=O)O)C3)c(C)o2)cc1 (stereo unspecified) was read as PKD1 kinase inh -7.8, GALR2 ag -1.4, RGS16-Gao HTS 90.0, HSV augment inactive and HSV augment primary fold 0.91.
C=CCn1c(SCc2c(C)noc2C)nc2ccccc2c1=O was read as PKD1 kinase inh 2.2, INS promoter inh -134.4, GALR2 ag -0.9, RGS16-Gao HTS 97.4, HSV augment inactive, INS promoter inh cell count 3.8 and HSV augment primary fold 0.61.
For COc1ccc(C(=O)/C=C/c2cn(CC(O)CN3CCOCC3)c3ccccc23)cc1 (stereo unspecified) the results were PKD1 kinase inh -7.2, INS promoter inh 35.3, GALR2 ag -1.0, RGS16-Gao HTS 90.8, HSV augment inactive, INS promoter inh cell count 99.4 and HSV augment primary fold 1.2.
COc1ccc(OCC(=O)N/N=C(\C)c2ccc(OC)cc2)cc1 was read as PKD1 kinase inh -4.0, RGS16-Gao HTS 95.8, HSV augment inactive and HSV augment primary fold 0.87.
COc1cccc(CN(C)C(=O)c2cccc(OC3CCN(C4CCCC4)CC3)c2)c1 was read as PKD1 kinase inh -0.3, RGS16-Gao HTS 98.0, HSV augment inactive and HSV augment primary fold 1.02.
Screening CCCOc1cccc(NC(=O)c2c(-c3ccccc3)noc2C)c1 returned PKD1 kinase inh -10.0, INS promoter inh -38.5, GALR2 ag -0.9, RGS16-Gao HTS 78.1, HSV augment inactive, INS promoter inh cell count 113.4 and HSV augment primary fold 1.07.
Screening CN(C)S(=O)(=O)Oc1ccc(C(=O)Nc2cccc(Cl)c2)cc1 returned PKD1 kinase inh 4.5, INS promoter inh -11.8, RGS16-Gao HTS 104.4, HSV augment inactive, INS promoter inh cell count 103.5 and HSV augment primary fold 0.78.
Screening COc1cc2[nH]c(-c3ccc(C)cc3)cc(=O)c2cc1OC returned PKD1 kinase inh -12.2, INS promoter inh -31.8, GALR2 ag -3.4, RGS16-Gao HTS 104.5, HSV augment inactive, INS promoter inh cell count 104.9 and HSV augment primary fold 0.94.
`CC1(C)CC(=O)C(C(C2=C(O)CC(C)(C)CC2=O)c2ccc([N+](=O)[O-])cc2)C(=O)C1` (stereo unspecified) gave PKD1 kinase inh 5.4, INS promoter inh -3.1, GALR2 ag -0.7, RGS16-Gao HTS 95.9, HSV augment inactive, INS promoter inh cell count 101.5 and HSV augment primary fold 1.
Screening Cc1ccc(Cl)cc1NC(=O)COC(=O)C1CCCCC1 returned PKD1 kinase inh -0.1, INS promoter inh -18.8, GALR2 ag -0.9, RGS16-Gao HTS 106.0, HSV augment inactive, INS promoter inh cell count 136.2 and HSV augment primary fold 0.897.
Screening CC[C@H](C)[C@H](NS(=O)(=O)c1ccc(C)cc1)C(=O)N1CCC(C(=O)N[C@H](C(=O)O)C(C)C)CC1 returned PKD1 kinase inh 1.2, INS promoter inh 50.0, GALR2 ag -2.8, RGS16-Gao HTS 100.6, HSV augment inactive, INS promoter inh cell count 101.2 and HSV augment primary fold 1.
For COc1ccc(C)cc1NC(=O)c1ccc(S(=O)(=O)N2CCOCC2)cc1 the results were PKD1 kinase inh 1.4, INS promoter inh -8.3, GALR2 ag -1.3, RGS16-Gao HTS 105.8, HSV augment inactive, INS promoter inh cell count 123.9 and HSV augment primary fold 0.92.
`COc1ccc(C(=O)NC(=S)Nc2cc3oc4ccccc4c3cc2OC)cc1` gave PKD1 kinase inh 3.8, INS promoter inh 3.7, GALR2 ag -0.1, RGS16-Gao HTS 198.0, HSV augment inactive, INS promoter inh cell count 99.1 and HSV augment primary fold 1.13.
COc1cc2c(cc1OC)-c1cc(Nc3ccc4c(c3)OCCO4)nc(=O)n1CC2 was read as PKD1 kinase inh 3.0, INS promoter inh -24.3, GALR2 ag -2.2, RGS16-Gao HTS 102.8, HSV augment inactive, INS promoter inh cell count 75.4 and HSV augment primary fold 0.8.
`CCC(CC)NC(=O)COC(=O)CCC(=O)c1cccs1` gave PKD1 kinase inh -2.2, GALR2 ag 0.1, RGS16-Gao HTS 101.1, HSV augment inactive and HSV augment primary fold 1.03.
Screening Cc1cc(/C=C2/NC(=O)N(Cc3ccccc3F)C2=O)c(C)n1C(C)C returned PKD1 kinase inh -2.8, INS promoter inh -42.9, GALR2 ag -0.6, RGS16-Gao HTS 91.4, HSV augment inactive, INS promoter inh cell count 126.5 and HSV augment primary fold 0.9.
For O=C(NC1CCCC1)C(=O)N(c1ccccc1F)C(C(=O)NCC1CCCO1)c1cccs1 (stereo unspecified) the results were PKD1 kinase inh -9.0, INS promoter inh -28.6, RGS16-Gao HTS 98.9, HSV augment inactive, INS promoter inh cell count 95.8 and HSV augment primary fold 0.93.
For C/C(=N\NC(=O)c1cc(C)oc1C)c1ccc(N2CCOCC2)cc1 the results were PKD1 kinase inh -6.3, RGS16-Gao HTS 101.9, HSV augment inactive and HSV augment primary fold 0.89.
Screening COc1ccc(Cl)cc1S(=O)(=O)N1CCN=C1C returned PKD1 kinase inh 3.9, GALR2 ag -1.7, RGS16-Gao HTS 103.5, HSV augment inactive and HSV augment primary fold 0.85.
O=C(COC(=O)C1CCCCC1)NCCc1ccccc1 was read as PKD1 kinase inh 3.3, GALR2 ag 0.9, RGS16-Gao HTS 101.4, HSV augment inactive and HSV augment primary fold 1.03.
CC(=O)c1cccc(NC(=O)CCNS(=O)(=O)c2cccc3nsnc23)c1 was read as PKD1 kinase inh 6.3, INS promoter inh -17.9, GALR2 ag -3.0, RGS16-Gao HTS 100.4, HSV augment inactive, INS promoter inh cell count 59.2 and HSV augment primary fold 0.96.
Screening Cc1ccc2oc(=O)n(CCOc3ccccc3)c2c1 returned PKD1 kinase inh -0.2, INS promoter inh 0.0, RGS16-Gao HTS 106.0, HSV augment inactive, INS promoter inh cell count 125.0 and HSV augment primary fold 0.91.
For COc1ccc(-c2nn(C)c3sc(C(=O)N4CCOCC4)cc23)cc1OC the results were PKD1 kinase inh -8.6, GALR2 ag -1.5, RGS16-Gao HTS 100.5, HSV augment inactive and HSV augment primary fold 0.98.
Screening Cc1nc(Oc2cccc(Cl)c2)c2oc3ccccc3c2n1 returned PKD1 kinase inh -2.8, INS promoter inh -25.0, GALR2 ag -1.5, RGS16-Gao HTS 104.1, HSV augment inactive, INS promoter inh cell count 65.6 and HSV augment primary fold 1.17.
CCCC(O)(CCC)C(=O)NNc1ccc(C)cc1 was read as RGS16-Gao HTS 99.8, HSV augment inactive and HSV augment primary fold 1.09.
CC1(c2ccc3noc(-c4ccc(F)cc4)c3c2)OCCO1 was read as PKD1 kinase inh 8.1, INS promoter inh -16.1, GALR2 ag -1.2, RGS16-Gao HTS 97.0, HSV augment inactive, INS promoter inh cell count 44.7 and HSV augment primary fold 1.05.
Screening CN(c1ccc(C(=O)Nc2ccc(CC#N)cc2)cc1)S(C)(=O)=O returned PKD1 kinase inh -1.5, INS promoter inh 36.4, RGS16-Gao HTS 100.3, HSV augment inactive, INS promoter inh cell count 82.8 and HSV augment primary fold 1.06.
Screening CCOC(=O)N1CCC(n2c(SCC(=O)NCc3ccccc3)nc3ccccc3c2=O)CC1 returned PKD1 kinase inh -8.0, GALR2 ag 0.5, RGS16-Gao HTS 101.6, HSV augment inactive and HSV augment primary fold 0.87.
CSc1nnc(-c2ccncc2)n1/N=C/c1cn(-c2ccccc2)nc1-c1ccc(Cl)cc1 was read as RGS16-Gao HTS 95.6, HSV augment inactive and HSV augment primary fold 0.98.
`COc1ccc(C2/C=C\CN(S(=O)(=O)c3ccc4ccccc4c3)CC(=O)N2Cc2ccc(F)cc2)cc1` (stereo unspecified) gave RGS16-Gao HTS 99.8, HSV augment inactive and HSV augment primary fold 1.11.
Cc1cc(=O)[nH]c(NCc2ccccc2)n1 was read as RGS16-Gao HTS 97.2, HSV augment inactive and HSV augment primary fold 1.12.
`CC(C)COc1ccc(Cc2cnc(N)nc2N)cc1` gave PKD1 kinase inh -2.6, INS promoter inh 0.0, GALR2 ag -1.9, RGS16-Gao HTS 97.2, HSV augment inactive, INS promoter inh cell count 94.4 and HSV augment primary fold 1.
For C=CCn1c(SCC(N)=O)nc(C)cc1=O the results were PKD1 kinase inh 0.1, INS promoter inh 58.8, GALR2 ag -1.4, RGS16-Gao HTS 96.5, HSV augment inactive, INS promoter inh cell count 130.7 and HSV augment primary fold 1.01.
Screening Cc1oc(-c2ccccc2F)nc1CS(=O)(=O)CC(=O)NCCN(C)C1CCCCC1 returned PKD1 kinase inh 3.4, GALR2 ag -4.0 and RGS16-Gao HTS 116.6.
O=c1[nH]c2c(s1)C=Nc1ccccc1N2 was read as PKD1 kinase inh -4.0, GALR2 ag -0.3, RGS16-Gao HTS 65.3, HSV augment inactive and HSV augment primary fold 1.01.
Screening Cc1noc(NS(=O)(=O)c2ccc(NC(=O)CSc3nc4ccccc4s3)cc2)c1C returned PKD1 kinase inh 2.8, INS promoter inh -19.8, GALR2 ag -2.1, RGS16-Gao HTS 146.6, HSV augment inactive, INS promoter inh cell count 92.8 and HSV augment primary fold 1.03.
Screening Cc1ccccc1OCc1nc2c3c(ncn2n1)-c1ccccc1CC31CCCC1 returned PKD1 kinase inh -4.8, GALR2 ag 0.5, RGS16-Gao HTS 93.5, HSV augment inactive and HSV augment primary fold 1.26.
O=C(NCCOc1cccc(Oc2ccccc2)c1)c1cc(-n2cnnc2)ccc1Cl was read as PKD1 kinase inh -21.1, INS promoter inh -41.7, GALR2 ag -1.5, RGS16-Gao HTS 104.2, HSV augment inactive, INS promoter inh cell count 72.3 and HSV augment primary fold 1.03.
`CCC(C)(C)n1nnnc1C(c1cc2ccc(C)cc2[nH]c1=O)N(Cc1cccnc1)Cc1ccco1` (stereo unspecified) gave PKD1 kinase inh 5.1, GALR2 ag 0.3, RGS16-Gao HTS 100.1, HSV augment inactive and HSV augment primary fold 1.02.
CCCC1NC(=O)NC(C)=C1C(=O)OCC (stereo unspecified) was read as PKD1 kinase inh -3.2, INS promoter inh 42.9, GALR2 ag -1.1, RGS16-Gao HTS 91.4, HSV augment inactive, INS promoter inh cell count 145.8 and HSV augment primary fold 0.96.
`COc1ccc(/C=C(/CC(=O)NCc2ccc(Cl)cc2)c2nc3ccccc3s2)cc1` gave PKD1 kinase inh 5.2, INS promoter inh 33.3, GALR2 ag -0.1, RGS16-Gao HTS 109.5, HSV augment inactive, INS promoter inh cell count 131.7 and HSV augment primary fold 0.91.
Screening COc1cccc(CNC(=O)c2ccc(NC(=O)C3CCCO3)cc2)c1 (stereo unspecified) returned PKD1 kinase inh -1.8, GALR2 ag -1.4, RGS16-Gao HTS 107.1, HSV augment inactive and HSV augment primary fold 0.96.
COc1ccccc1CN1C[C@@H]2C[C@@H](c3cccc(C)n3)N3CCC[C@@]23C1=O was read as PKD1 kinase inh -8.3, RGS16-Gao HTS 179.1, HSV augment inactive and HSV augment primary fold 1.03.
For O=[N+]([O-])c1cccc2c(N3CCCC3)ccnc12 the results were PKD1 kinase inh -6.7, RGS16-Gao HTS 104.1, HSV augment inactive and HSV augment primary fold 0.73.
N#Cc1ccc(CO/N=C/c2ccccc2)cc1 was read as PKD1 kinase inh -3.0, RGS16-Gao HTS 96.6, HSV augment inactive and HSV augment primary fold 1.04.
`CCOC(=O)CCn1cc(F)c(=O)[nH]c1=O` gave PKD1 kinase inh -4.8, INS promoter inh -28.6, RGS16-Gao HTS 106.7, HSV augment inactive, INS promoter inh cell count 112.0 and HSV augment primary fold 0.92.
Screening N#Cc1c(C#N)c(-c2ccccc2)n(-c2ccccc2)c1N returned PKD1 kinase inh -8.5, INS promoter inh -37.8, GALR2 ag 3.4, RGS16-Gao HTS 101.4, HSV augment inactive, INS promoter inh cell count 83.0 and HSV augment primary fold 0.92.
